Bioassay records: PubChem BioAssay, several laboratories
Hsc70 ATP site: small molecules displacing fluorescent ligand from Hsc70 – biochemical, fluorescence polarization, primary screen (AID 568); Hsc70 fluorescence polarization, probe displacement; higher % means a stronger effect; strong numbers were not always called active; displacement, % at 20 µM, or IC50 in µM where a hit was titrated; 83,000 tested, under 10 active;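 active = displacement above 50% without optical interference and an IC50 on retest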;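 also: ATPase domain with a fluorescein-tagged ATP probe; 0% = vehicle and 100% = excess ADP; read after one hour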
WNV protease inh: WNV NS2B-NS3 proteinase inhibition | P06935 | hit rate 0.18% among 65,000 | WNV NS2B-NS3 protease, fluorogenic substrate Ex360/Em465; hits give low values | AID 577 | z-score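 (tested at a level between 10 and 100 µM)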;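 active = z-score at -3 or under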;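 also: score is relative to mean and spread of the compound wells of a plate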
Target sequence (P06935 1371-1501 limits assumed): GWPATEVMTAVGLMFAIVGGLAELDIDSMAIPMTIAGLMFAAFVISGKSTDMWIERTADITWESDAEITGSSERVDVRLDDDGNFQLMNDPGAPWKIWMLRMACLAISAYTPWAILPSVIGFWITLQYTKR
Target sequence (P06935 1502-1679 limits assumed): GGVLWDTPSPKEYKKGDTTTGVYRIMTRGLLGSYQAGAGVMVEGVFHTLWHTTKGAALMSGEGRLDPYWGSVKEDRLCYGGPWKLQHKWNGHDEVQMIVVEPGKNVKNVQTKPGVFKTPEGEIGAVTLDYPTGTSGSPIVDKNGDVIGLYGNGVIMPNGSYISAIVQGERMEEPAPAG
MT1-MMP reporter: inhibitors of MT1-MMP promoter transcription, cell-based, luciferase reporter, luminescence (AID 618). MT1-MMP promoter luciferase reporter cells, luminescence. calls from a first round at 10 µM; hits with a dose series show EC50 in µM. hit rate 0.62% among 87,000;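 active = over half of the reporter light lost at 10 µM or EC50 under 50 µM; inactive = the rest and hits that failed the dose series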;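 also: actives suppress MT1-MMP promoter-driven transcription so potencies describe inhibitors; HT1080 fibrosarcoma cells; overnight exposure; toxic or luciferase-blocking compounds were not removed from the actives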
The depositor's hits bear a star; i = inactive; / = not tested or not shown.

cpd	structure	Hsc70 ATP site	WNV protease inh	MT1-MMP reporter
1	Cc1cc(C)n2nc3nc(N4CCCC4)nc(-c4ccccc4)c3c2n1	-2.6%	0.74	i
2	COc1cc(Cn2cnnn2)ccc1O	-5.8%	-0.47	i
3	O=C(Nc1ccccc1)NC1CCN(Cc2nnnn2C2CCCCC2)CC1	0.9%	-0.71	i
4	Cc1ccc(NC(=O)CN(C)S(=O)(=O)c2cccc3nsnc23)cc1C	4.6%	-1.5	i
5	COC(=O)c1ccccc1NC(=O)c1ccccc1OC	0.7%	-1	i
6	CCN1CCN(c2ncc3c(n2)CC(c2cc(OC)c(OC)c(OC)c2)CC3=O)CC1 (centres undefined)	6.5%	-0.69	i
7	CCOC(=O)Cn1c(C)c(C#N)c2ccccc21	5.0%	-1.2	i
8	Cc1nc2ccc(Br)cn2c(=O)c1Cl	-3.6%	0.53	i
9	c1ccc(CCNc2nc3ccccc3n3nnnc23)cc1	-37%	2.2	i
10	O=C1NCCCC1C(=O)N1CCN(C(c2ccccc2)c2ccccc2)CC1 (centres undefined)	4.3%	0.88	i
11	CCCn1c(CCC(=O)O)ccc1-c1ccc(F)cc1	-6.1%	-0.42	i
12	O=C(O)c1cccnc1NC1CCCC1	1.8%	/	i
13	CC1Cc2cc(C3(O)C(=O)c4ccccc4C3=O)ccc2N1 (centres undefined)	2.5%	-0.0014	i
14	COC(=O)c1[nH]c2ccccc2c1NC(=O)CN1CCN(C/C=C/c2ccccc2)CC1	-3.3%	-0.85	i
15	COc1ccc(-n2nc3cc(C)c(NC(=O)C(C)C)cc3n2)cc1	-3.0%	1.6	i
16	c1ccc(-c2nc(NCc3ccco3)c3oc4ccccc4c3n2)cc1	0.7%	/	i
17	CCN1CCCC1CNC(=O)c1ccc(N2CCCC2=O)cc1 (centres undefined)	10%	0.15	i
18	CC(C)C(NC(=O)c1ccc(C(C)(C)C)cc1)C(=O)NC1=NCCS1 (centres undefined)	-1.2%	/	i
19	COc1ccc(OC)c(S(=O)(=O)N2CCC(C(=O)NCc3ccccc3OC)CC2)c1	1.0%	1.9	i
20	O=C(CCc1ccccc1)NC(NC(=S)Nc1cccc(Cl)c1)C(Cl)(Cl)Cl (centres undefined)	-3.7%	/	i
21	O=C(Cc1ccc(Br)cc1)c1ccc(O)cc1O	10%	0.06	i
22	O=C(NC1CCCCC1)C(c1ccc(O)cc1)N(CC1CCCO1)C(=O)C1COc2ccccc2O1 (centres undefined)	1.8%	/	i
23	CCN(CC)S(=O)(=O)c1ccc2oc(C(=O)NCc3ccc(C)cc3)c(C)c2c1	6.4%	/	i
24	Cc1ccc(S(=O)(=O)/C(C#N)=C/c2c(N3CC(C)OC(C)C3)nc3ccccn3c2=O)cc1 (centres undefined)	1.7%	/	i
25	N#CCCn1cc(/C=N/O)c(-c2ccccc2)n1	3.6%	/	i
26	Cc1cc(NC(=O)c2cccc(COc3ccc(Br)cc3)c2)no1	6.3%	-0.78	i
27	CCOc1ccc(-c2nc(CSCC(=O)N3CCN(C(=O)c4ccco4)CC3)c(C)o2)cc1	-2.9%	0.58	i
28	CC(C)n1c(CN2CCN(C)CC2)nc2c1c(=O)n(C)c(=O)n2C	-5.0%	-1.1	i
29	CCOC(=O)C1=C(O)/C(=C/c2ccc(CNC(=O)C(=O)Nc3ccc(C)cc3)o2)N=C1C	-6.9%	/	i
30	COc1ccc(Oc2c(C)oc3cc(OC(=O)N4CCOCC4)ccc3c2=O)cc1	-1.0%	0.07	i
31	Cn1c(=O)n(CCN2CCOCC2)c(=O)c2c1nc1n2CCCN1c1ccccc1	3.7%	0.16	i
32	CC1CC(=O)C2=C(C1)Nc1ccccc1N=C2 (centres undefined)	-17%	/	i
33	CCOC(=O)Cc1nnc2c(Nc3ccccc3F)nc3nonc3n12	-0.7%	-1.3	i
34	CCN(CC(=O)Nc1ccc(S(N)(=O)=O)cc1)S(=O)(=O)c1cc(C)ccc1OC	-0.1%	-0.41	i
35	CC1(C)CC(=O)C(CCC(=O)c2ccccc2)C(C)(C)N1 (centres undefined)	-5.3%	2.3	i
36	COc1ccc(Cl)cc1-n1c(N)c(C(N)=O)sc1=S	0.3%	1.3	i
37	CCOCC(=O)Nc1nnc(C2CCCCC2)s1	6.2%	-0.3	i
38	Brc1ccc(-c2nc(-c3ccccn3)no2)o1	4.7%	1.1	2.1µM*
39	COc1ccc2c(c1OC)C(=O)N1C2SC[C@H]1C(=O)NC1CC(C)(C)NC(C)(C)C1 (some centres undefined)	-6.9%	1.3	i
40	CCn1ncc(C2=NOC(C(=O)Nc3cccc(C(C)=O)c3)C2)c1C (centres undefined)	-7.4%	2.6	i
41	CN1C(=O)CC(N2CCN(c3ccccc3)CC2)C1=O (centres undefined)	-2.4%	/	i
42	CC1(C)CC(=O)c2c(O)cc(OCc3ccc(Br)cc3)cc2O1	2.2%	/	i
43	O=[N+]([O-])c1ccc(-c2ccc(C=Nc3cccc4ccccc34)o2)cc1	-4.0%	/	i
44	Cc1ccc(C(NC(=O)N2CCOCC2)=C(Cl)Cl)cc1F	-2.4%	-0.6	i
45	Cc1ccc(S(=O)(=O)/N=C(\CN2CCOCC2)N2CCCC2)cc1	0.2%	-0.94	i
46	CCC1Oc2ccc(C)cc2N(CC(=O)N(Cc2ccc(C)o2)C2CCCC2)C1=O (centres undefined)	11%	/	i
47	COc1ccc(CN(Cc2ccc(OC)cc2)S(=O)(=O)c2ccc(-n3cnnn3)c(C)c2)cc1	6.9%	/	i
48	CCS(=O)(=O)NCCc1csc(-c2ccccc2)n1	-0.1%	1.2	i
49	CC(C)CN1C(=S)SC(C)(C)C1n1oc(=O)n(-c2ccc(Cl)cc2)c1=O (centres undefined)	1.4%	/	i
50	Cc1ccc(-c2csc(NC(=O)COC(=O)c3cccc(S(=O)(=O)N4CCOCC4)c3)n2)cc1	0.7%	/	i
51	Clc1cc2nc3ccccn3c2cc1Cl	-9.6%	/	i
52	CCCNc1cc(=O)n(C)c(=O)n1C	8.2%	0.06	i
53	Cc1cc(C)nc(SCc2ccccc2C#N)n1	4.8%	-0.26	i
54	Cc1cc(Nc2ccc(Br)cc2)n2nc(C)nc2n1	-4.7%	0.75	i
55	Cc1cccnc1NC(=O)C(C)Oc1ccccc1 (centres undefined)	8.4%	-1	i
56	c1ccc(CSc2nnc(-c3c[nH]c4ccccc34)o2)cc1	0.2%	1.1	i
57	Cc1c2c(n3c(nc4ccccc43)c1C#N)N(Cc1ccccn1)CC2	6.0%	-0.44	i
58	Cc1ccc(C(=O)N/N=C/c2ccc([N+](=O)[O-])s2)cc1	-3.1%	/	0.3µM*
59	O=C(NCc1ccco1)c1ccc(CN2CCOCC2)cc1	-1.5%	-0.41	i
60	O=c1ccc(Br)c[nH]1	3.7%	-0.56	i

(listing goes on)
cpd	structure	Hsc70 ATP site	WNV protease inh	MT1-MMP reporter
61	COCC(C)n1c(C)cc(C(=O)COC(=O)c2n[nH]c3ccccc23)c1C (centres undefined)	4.5%	/	i
62	O=C(c1cnn2c(C(F)F)cc(-c3ccccc3)nc12)N1CCSCC1	-2.3%	0.45	i
63	CS(=O)(=O)N(CC(=O)N1CCCC1)c1cccc(Cl)c1	-0.7%	-0.58	i
64	O=C(COc1ccc2c(c1)OCO2)Nc1ccc2c(c1)oc1ccccc12	-0.2%	0.39	i
65	Cc1ccccc1-c1noc(C2CCCCC2)n1	4.1%	/	i
66	CCOc1ccc(/C(O)=C2\C(=O)C(=O)N(CCOCCO)C2c2ccccc2OC)cc1 (centres undefined)	0.6%	/	i
67	COC(=O)c1c(NC(=O)CSc2nncs2)sc2c1CCCCC2	-3.9%	-0.008	i
68	O=C(NCCn1cccc1)c1cccc2ccccc12	2.0%	-1.7	i
69	CCCCCN(C(=O)NC(=O)NCCCC)S(C)(=O)=O	-3.3%	-0.74	i
70	O=C(CSc1ccc2nnc(-c3ccccn3)n2n1)NCC1CCCO1 (centres undefined)	3.2%	0.93	i
71	COC(=O)[C@H](C)NC(=O)NCc1ccccc1F	-4.5%	-0.92	i
72	COc1cc(Cl)c(S(=O)(=O)NCc2ccccn2)cc1Cl	-4.1%	/	i
73	CCn1c(SCC(=O)N2CCN(c3ccc(Cl)cc3)CC2)nc2ccccc2c1=O	5.0%	1.4	i
74	CCOC(=O)N1CCC(NC(=O)c2cc3cc4cc(OC)ccc4nc3o2)CC1	2.8%	-0.0058	i
75	COc1ccccc1C(=O)Oc1ccc(N2C(=O)CCC2=O)cc1	3.8%	-1	i
76	CN(C)CCNC(=O)NC1CCCCC1	3.4%	1.2	i
77	CCOC(=O)c1sc(NC(=O)CSc2nc(C)cc(C)n2)c(C#N)c1C	-3.4%	/	i
78	CCOc1ccc(-c2[nH]ncc2Oc2ccccc2OCC)c(O)c1	-4.8%	0.45	i
79	Cc1ccccc1Cn1nc(C)c(NC(=O)c2cc(-c3cccs3)on2)c1C	-5.7%	1.8	i
80	Nc1cc(N)nc(SCc2cccnc2)n1	-5.0%	0.42	i

Quoted from the listing.
In WNV protease inh, COC(=O)c1ccccc1NC(=O)c1ccccc1OC has -1
In Hsc70 ATP site, CCOC(=O)Cc1nnc2c(Nc3ccccc3F)nc3nonc3n12 has -0.7%
In WNV protease inh, CC1Cc2cc(C3(O)C(=O)c4ccccc4C3=O)ccc2N1 (centres undefined) has -0.0014

In the list so far, these contain a nitro group on carbon.
cpd	structure	Hsc70 ATP site	WNV protease inh	MT1-MMP reporter
43	O=[N+]([O-])c1ccc(-c2ccc(C=Nc3cccc4ccccc34)o2)cc1	-4.0%	/	i
58	Cc1ccc(C(=O)N/N=C/c2ccc([N+](=O)[O-])s2)cc1	-3.1%	/	0.3µM*

(more compounds)
cpd	structure	Hsc70 ATP site	WNV protease inh	MT1-MMP reporter
81	CCNc1nc(NCC)nc(SCCOC(=O)c2ccccc2)n1	1.3%	/	i
82	CCOc1ccc(S(=O)(=O)NCCCN2CCOCC2)c2ccccc12	-13%	-0.85	i
83	CCOc1ccccc1Nc1nnc(SCC(=O)Nc2cc(C)on2)s1	4.8%	-1.5	i
84	CC(=O)c1cnc2nc(C)nn2c1C	2.5%	0.35	i
85	COc1ccc(Cl)cc1NC(=O)CSc1ncnc2c1oc1ccccc12	4.7%	-1	i
86	CC(=O)Nc1ccc(S(=O)(=O)N(C)S(=O)(=O)c2ccc(F)cc2)cc1	4.5%	1.5	i
87	NC(=O)CSc1nnc(-c2cc3ccccc3o2)n1Cc1ccccc1	-4.0%	-0.54	i
88	CCOC(=O)C(C)Sc1nnc(Cc2cc(=O)[nH]c(=O)[nH]2)n1-c1cccc(OC)c1 (centres undefined)	1.4%	0.02	i
89	Cc1cc(C)nc(N2CCCC(C(=O)NCCc3ccc(F)cc3)C2)n1 (centres undefined)	-6.9%	-0.12	i
90	CNc1ccc(C(O)(C(F)(F)F)C(F)(F)F)cc1C(O)(C(F)(F)F)C(F)(F)F	-2.0%	-0.63	i
91	COc1ccc(NC(=O)CCNC(=O)Cn2cnc3ccccc3c2=O)c(OC)c1	-1.3%	-1.4	i
92	Cc1ccc(OCc2nnc(NC(=O)c3ccco3)s2)c(C)c1	-26%	0.19	i
93	CCOc1ccc(-n2c3nc4ccccc4nc3c3c(=O)n(Cc4ccco4)cnc32)cc1	-12%	0.23	i
94	CC(=O)Nc1nc(C)c(Cc2ccccc2)c(=O)[nH]1	-0.6%	-0.35	i
95	CCn1c(=O)cc(SCC(=O)N2CCN(C(=O)c3ccco3)CC2)c2ccccc21	-0.5%	-0.48	i
96	CCCCCn1c(S(=O)(=O)O)nc2ccccc21	2.6%	0.39	i
97	CCC(CC)C(=O)NCc1ccccc1Cl	0.3%	-1.1	i
98	O=C(Nc1ccccc1)C(Cc1cccs1)c1nn[nH]n1 (centres undefined)	5.1%	/	i
99	COc1ccc(N2CCN(c3nc(NCCc4ccc(OC)c(OC)c4)nc(OC)n3)CC2)cc1	0.0%	-0.08	i
100	O=C(NCCCC(=O)N1CCOCC1)c1cccnc1	-0.8%	-0.63	i

Results in sequence from the list:
MT1-MMP reporter, entries 60–66, in order: i, i, i, i, i, i, i
Hsc70 ATP site, entries 60–66, in order: 3.7%, 4.5%, -2.3%, -0.7%, -0.2%, 4.1%, 0.6%

Other results follow.
cpd	structure	Hsc70 ATP site	WNV protease inh	MT1-MMP reporter
101	CCNc1nc2nonc2nc1NCC	-1.1%	-0.99	i
102	CCOC(=O)C1CCN(C(=O)c2cnn3c(C)cc(C)nc23)CC1	1.8%	-1	i
103	O=C1CC(C(=O)Nc2ccc(C(=O)O)cc2)C(c2ccccc2)O1 (centres undefined)	-2.2%	/	i
104	O=C(CSc1nc2ccccc2n1CC(=O)N1CCCC1)Nc1nccs1	5.1%	-0.41	i
105	COc1ccc2c(c1OC)C(C1c3c(cc4c(c3OC)OCO4)CCN1C)OC2=O (centres undefined)	0.1%	/	i
106	COc1ccc(S(=O)(=O)NCCC(=O)NCc2cccs2)cc1	-3.3%	-0.11	i
107	C=CCn1c(SCc2ccccc2C#N)nnc1-c1ccccc1O	0.8%	-1.4	i
108	CCc1nc2ccccc2c(=O)n1CCCCn1c(CC)nc2ccccc2c1=O	0.0%	-0.12	i
109	CCOC(=O)N1CCN(S(=O)(=O)/C=C/c2ccccc2)CC1	-2.8%	-0.32	i
110	O=C(NCc1ccncc1)c1nnc(Cc2c(F)cccc2Cl)o1	1.3%	1.3	i
111	O=C(CCSCCc1ccncc1)NCCCN1CCOCC1	3.6%	-0.02	i
112	CC(=O)Nc1ccc2c(c1)nc(CCN1CCOCC1)n2C	-1.0%	-1.6	i
113	CCc1nc2scc(-c3cccs3)c2c(=O)o1	1.5%	/	i
